# P. yoelii liver: Plasmodium liver-stage growth inhibition, dose response, imaging, Malaria Box, P. yoelii, HepG2-A16-CD81EGFP (AID 602156). P. yoelii liver stage in HepG2-A16-CD81EGFP, imaging; first-round cut-off not given here. calls after a first round at 10 µM; hits with a dose series show IC50 in µM. hit rate 4.8% among 5,700; in the data active = a potency from the dose series;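 note: infected cells exposed to compound for 48 hours before fixation; stained parasite area by imaging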
# Calls only; i = inactive. A portion of the library. The share of hits here may be higher or lower than overall.
SMILES,P. yoelii liver
NC(=NCc1ccccc1)NC(=O)c1nc(Cl)c(N)nc1N,i
CCN1CCN(Cc2ccc(-c3cc4c(N[C@H](C)c5ccccc5)ncnc4[nH]3)cc2)CC1,i

# Screening results from PubChem.
